# YB-1 expression: inhibitors of YB-1 gene expression, primary screen, cell-based, fluorescence | delta delta Cp (YB-1 minus CDIP) (test concentration not listed) | actives 0.37% (n = 30,000) | U2OS, qRT-PCR YB-1 vs CDIP delta delta Cp, 16 h; hits give high values; zero = DMSO, each unit about twofold;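 active = delta delta Cp rounded down to an integer at or above 3, about 3 SD of DMSO wells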;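 also: higher means less YB-1 transcript or more CDIP transcript relative to DMSO; stock transfer was 100 nL into about 100 µL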
# MITF inh: inhibitors of MITF, primary screen, MITF inhibitor project, cell-based, luminescence | TRPM1 promoter luciferase, 24 h | AID 2240, 2010 | inhibition, % (concentration not given with the values) | actives 0.28% (n = 37,000);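 active = most replicates at 85% or more, or half of them and the mean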;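 also: human melanocyte line stably carrying TRPM1 promoter luciferase reporter; 0% = vehicle wells and 100% = a positive control; the first replicate is given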
# PD-1 reversal: activators reversing PD-1 mediated T-cell inhibition, primary screen, luminescence, primary human CD4 T cells, PD-L1 beads; CellTiter-Glo 96 h; AID 2316, 2010; 29,000 tested, under 10 active; activation, % (test concentration not listed);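 active = replicate mean of 50% or more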;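 also: 0% = median vehicle wells and 100% = positive control; 100 nL library stock added to about 50 µL; numbers are from one replicate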
# Hedgehog inh: Hedgehog pathway signaling inhibitors, primary screen, luminescence, Shh-LIGHT2 cells, Gli-luciferase; Shh-LIGHT2 Gli-luciferase reporter, 30 h; AID 2313, 2010; actives 2.1% (n = 22,000); inhibition, % (concentration not given with the values);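 active = replicate mean of 65% or more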;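 also: pathway switched on by Shh-conditioned medium diluted 1 in 25 in low serum; 100 nL library stock added to about 40 µL; 0% = median of neutral wells and 100% = positive control level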
# Starred values were filed as active, the others as inactive; x = no result given. Not all compounds are listed; count on the stated rates, not on these rows.
SMILES,YB-1 expression,MITF inh,PD-1 reversal,Hedgehog inh
C=CCOC(Cn1ccnc1)c1ccc(Cl)cc1Cl (stereo not given),0.082,21,x,36
CN(C)c1nc(Oc2ccc(OCCOc3ccccc3)nn2)nc(N(C)C)n1,x,-7,2.5,x
N=c1n(CC(=O)c2ccc(Cl)c(Cl)c2)c2ccccc2n1Cc1ccccc1,-0.03,2,0.2,x
CNC[C@H]1Oc2ccc(NC(=O)Nc3ccc(OC)cc3)cc2CC(=O)N([C@H](C)CO)C[C@H]1C,1.2,-1,0.2,5
c1ccc(-c2csc3ncnc(NCC4CCCO4)c23)cc1 (stereo not given),x,56,-7.6,x
CSc1nsc(SCCN2C(=O)c3ccccc3C2=O)n1,x,6,0.0,x
C[C@@H]1CN([C@@H](C)CO)C(=O)Cc2cc(NC(=O)Cc3ccccc3)ccc2O[C@@H]1CN(C)S(=O)(=O)c1ccc(Cl)cc1,0.3,14,-4.1,-29
C[C@H](CO)N1C[C@H](C)[C@H](CN(C)Cc2ccc3c(c2)OCO3)Oc2c(NS(=O)(=O)c3ccccc3)cccc2C1=O,-0.44,-8,-0.6,37
C[C@@H]1CN([C@H](C)CO)C(=O)Cc2cc(NC(=O)CCN3CCOCC3)ccc2O[C@@H]1CN(C)C(=O)Nc1ccccc1,-0.011,-2,-0.1,24
C[C@H]1CN([C@@H](C)CO)C(=O)c2cccc(NC(=O)Nc3ccc4c(c3)OCO4)c2O[C@H]1CN(C)CC1CCCCC1,-0.13,-15,2.1,16
COc1ccc(NC(=O)N(C)C[C@@H]2Oc3ccc(NC(=O)Cc4ccccc4)cc3C(=O)N([C@@H](C)CO)C[C@H]2C)cc1,0.2,-9,x,-23
CNC[C@H]1Oc2c(NC(=O)c3nc4ccccc4s3)cccc2C(=O)N([C@H](C)CO)C[C@H]1C,-0.37,37,-2.0,-49
CNC[C@@H]1Oc2ccc(NS(=O)(=O)c3ccc(F)cc3)cc2CC(=O)N([C@H](C)CO)C[C@@H]1C,-0.53,28,1.8,-10
Cc1ccc(NC(=O)CN(c2ccc(C)c(Cl)c2)S(C)(=O)=O)c(C)c1,x,0,0.9,x
Cc1noc(C)c1NC(=O)N(C)C[C@H]1Oc2ccc(NS(=O)(=O)c3c(C)noc3C)cc2C(=O)N([C@H](C)CO)C[C@H]1C,-0.26,9,0.1,-6
C[C@@H]1CN([C@@H](C)CO)C(=O)c2cccc(NS(=O)(=O)c3ccc(Cl)cc3)c2O[C@H]1CN(C)C(=O)Nc1ccc2c(c1)OCO2,-0.53,2,x,-11
C[C@H]1CN([C@@H](C)CO)C(=O)c2cccc(NC(=O)c3cnccn3)c2O[C@H]1CN(C)S(=O)(=O)c1cn(C)cn1,-0.099,-3,3.3,-19
Cc1noc(C)c1S(=O)(=O)N(C)C[C@@H]1Oc2ccc(NC(=O)Cc3cn(C)c4ccccc34)cc2CC(=O)N([C@H](C)CO)C[C@@H]1C,-0.2,0,-0.7,19
Cc1[nH]c(=S)c(C#N)c(C)c1CCC#N,0.22,-19,0.9,-13
C=CCn1c(SCC(N)=O)nnc1-c1ccco1,x,-15,0.4,x
COc1ccc(CN(C)C[C@H]2Oc3ccc(NC(=O)Nc4ccc5c(c4)OCO5)cc3CC(=O)N([C@H](C)CO)C[C@H]2C)cc1,0.033,-8,x,-13
C=CCNc1nc(C)nc(OC)n1,-0.013,8,0.8,9
C[C@@H]1CN([C@H](C)CO)C(=O)Cc2cc(NC(=O)Cc3ccccc3)ccc2O[C@@H]1CN(C)C(=O)Nc1ccc(F)cc1,0.17,-7,0.6,-29
CNC[C@@H]1Oc2ccc(NS(=O)(=O)c3ccccc3)cc2C(=O)N([C@@H](C)CO)C[C@@H]1C,-0.061,-7,x,x
C[C@H](CO)N1C[C@H](C)[C@@H](CN(C)S(C)(=O)=O)Oc2ccc(NC(=O)Nc3ccc4c(c3)OCO4)cc2C1=O,0.14,4,-0.1,-33
COc1ccc(S(=O)(=O)Nc2ccc3c(c2)C(=O)N([C@@H](C)CO)C[C@H](C)[C@@H](CN(C)Cc2ccc(C(=O)Nc4ccccc4N)cc2)O3)cc1,-0.074,7,0.0,x
O=C(CSc1nc(-c2ccc(Cl)cc2)cc(C(F)(F)F)n1)c1ccccc1,x,-18,-0.4,x
CC(C)NC(=O)Nc1cccc2c1O[C@H](CN(C)Cc1ccc3c(c1)OCO3)[C@H](C)CN([C@H](C)CO)C2=O,0.23,-1,1.3,0
CC(C)NC(=O)Nc1cccc2c1O[C@@H](CN(C)S(=O)(=O)c1ccccc1)[C@H](C)CN([C@@H](C)CO)C2=O,0.29,-14,0.3,-58
C[C@@H]1CCCCO[C@@H](CN(C)S(=O)(=O)c2ccc(Cl)cc2)[C@@H](C)CN([C@H](C)CO)C(=O)c2cc(NS(=O)(=O)c3cn(C)cn3)ccc2O1,-0.23,21,0.7,-17
COc1cc(C2OC[C@@H]3[C@@H](c4cc(OC)c(O)c(OC)c4)OC[C@H]23)cc(OC)c1O (stereo not given in full),1.1,-18,0.7,-4
C[C@H]1CN([C@@H](C)CO)C(=O)Cc2cc(NC(=O)Nc3ccccc3)ccc2O[C@@H]1CN(C)Cc1ccc(Cl)c(Cl)c1,-0.053,6,-0.4,20
CS(=O)(=O)NCCCNc1ccc(C(F)(F)F)cc1[N+](=O)[O-],x,-19,-1.6,x
CNC[C@H]1Oc2ccc(NS(=O)(=O)c3cn(C)cn3)cc2C(=O)N([C@H](C)CO)C[C@H]1C,-0.65,2,1.3,-19
C[C@@H]1CN([C@H](C)CO)C(=O)c2cc(NS(=O)(=O)c3ccc(Cl)cc3)ccc2O[C@H]1CN(C)Cc1ccc(C(=O)Nc2ccccc2N)cc1,-0.2,15,-0.8,x
C[C@@H]1CN([C@H](C)CO)C(=O)c2cccc(NC(=O)C3CC3)c2O[C@@H]1CN(C)S(C)(=O)=O,-0.35,-8,1.4,-73
COc1ccc(NC(=O)N(C)C[C@H]2Oc3ccc(NC(=O)Nc4cccc5ccccc45)cc3CC(=O)N([C@H](C)CO)C[C@H]2C)cc1,0.017,-6,-3.5,62
Cc1noc(C)c1S(=O)(=O)Nc1ccc2c(c1)C(=O)N([C@H](C)CO)C[C@@H](C)[C@@H](CN(C)C(=O)Nc1ccc(F)cc1)O2,-0.26,-7,x,-6
O=C(NCc1ccccn1)c1nn2c(C(F)(F)F)cc(-c3ccccc3)nc2c1Cl,x,43,-0.2,x
O=C1c2ccc(O)cc2C(=O)c2ccc(O)cc21,-0.6,-40,0.0,-5
CNS(=O)(=O)c1ccc(C(F)(F)F)cc1S(=O)c1ccccc1C(=O)O (stereo not given),0.39,-17,0.5,x
C[C@@H]1CN([C@@H](C)CO)C(=O)c2cc(NS(=O)(=O)c3cccs3)ccc2O[C@H]1CN(C)S(=O)(=O)c1ccccc1,-0.02,-2,1.7,30
COC(OC)(C(=O)c1ccccc1)c1ccccc1,-0.26,-5,-0.5,-54
Cc1noc(C)c1S(=O)(=O)Nc1ccc2c(c1)C(=O)N([C@@H](C)CO)C[C@H](C)[C@H](CN(C)Cc1ccncc1)O2,-0.64,5,0.4,-3
CC(C)NC(=O)Nc1ccc2c(c1)C(=O)N([C@H](C)CO)C[C@H](C)[C@@H](CN(C)CC1CCCCC1)O2,-0.17,6,x,-5
Cc1noc(C)c1NC(=O)Nc1ccc2c(c1)CC(=O)N([C@@H](C)CO)C[C@H](C)[C@@H](CN(C)S(C)(=O)=O)O2,-0.073,-3,2.4,-6
Cc1cc(S(=O)(=O)Nc2c(C)nc3nc[nH]n3c2=O)ccc1F,x,-8,3.1,x
C[C@H]1CN([C@@H](C)CO)C(=O)c2cccc(NC(=O)C3CC3)c2O[C@@H]1CN(C)Cc1ccc2c(c1)OCO2,-0.13,0,x,-16
CCCCC(=O)N1c2ccccc2C(Nc2ccccc2)CC1C (stereo not given),-0.37,10,0.0,47
C[C@H]1CN([C@@H](C)CO)C(=O)c2cc(NC(=O)CCC(F)(F)F)ccc2O[C@@H]1CN(C)Cc1ccc2c(c1)OCO2,0.013,0,2.1,x

# (listing goes on)
SMILES,YB-1 expression,MITF inh,PD-1 reversal,Hedgehog inh
O=C1c2ccccc2S(=O)(=O)N1CCCCN1C(=O)c2ccccc2S1(=O)=O,-0.55,-4,0.3,-15
COc1ccc(C2(CNC(=O)c3ccc(OC)c([N+](=O)[O-])c3)CCCC2)cc1OC,x,10,-3.1,x
CCOC(=O)N1CC=C2C(C1)C(c1cccc(C(F)(F)F)c1)C(C#N)=C(N)C2(C#N)C#N (stereo not given),-0.51,9,-23,17
C[C@H](CO)N1C[C@H](C)[C@@H](CN(C)Cc2ccc(C(F)(F)F)cc2)Oc2c(NC(=O)NC3CCCCC3)cccc2C1=O,-0.36,16,x,24
Cc1ccc(S(=O)(=O)Nc2ccc3c(c2)C(=O)N([C@H](C)CO)C[C@H](C)[C@@H](CN(C)Cc2ccncc2)OCCCC[C@@H](C)O3)cc1,0.049,0,1.3,6
Nc1ccc(S(=O)(=O)Nc2ccccn2)cc1,-0.12,-3,x,-25
CC(C)NC(=O)Nc1cccc2c1O[C@@H](CN(C)S(C)(=O)=O)[C@@H](C)CN([C@H](C)CO)C2=O,-0.29,0,x,-2
C[C@@H]1CN([C@@H](C)CO)C(=O)c2cccc(NC(=O)c3nc4ccccc4s3)c2O[C@@H]1CN(C)CC1CCCCC1,0.44,-16,-12,-33
c1nncn1N=C1CCCCC1,-0.38,11,-0.1,-9
O=C(CSc1nc2ccccc2c(=O)[nH]1)NCCO,x,-16,2.3,x
CSc1n[nH]c(=O)n1-c1ccc2c(c1)OCCO2,0.022,-4,0.1,-7
C[C@H](CO)N1C[C@H](C)[C@H](CN(C)S(=O)(=O)c2ccc(F)cc2)Oc2c(NC(=O)c3nc4ccccc4s3)cccc2C1=O,1.3,58,-6.6,9
COC(=O)c1ccc(C2C(C(=O)Nc3cc(OC)c(Cl)cc3OC)=C(C)Nc3ncnn32)cc1 (stereo not given),x,-2,-2.8,x
CC(C)NC(=O)N(C)C[C@H]1Oc2c(NS(=O)(=O)c3cn(C)cn3)cccc2C(=O)N([C@@H](C)CO)C[C@H]1C,-0.65,0,0.4,-6
CC(=O)Nc1ccc(NC(=O)CS(=O)(=O)Cc2ccccc2)cc1,x,-21,4.0,x
Cc1noc(C)c1S(=O)(=O)Nc1cccc2c1O[C@@H](CN(C)S(=O)(=O)c1ccccc1)[C@@H](C)CN([C@@H](C)CO)C2=O,0.018,-7,x,28
O=C(COc1ccc(Br)cc1Cl)Nc1ccccc1[N+](=O)[O-],x,-34,2.1,x
CC(=O)c1cccc(NC(=O)CNS(=O)(=O)c2ccc(Br)cc2)c1,x,-11,-0.8,x
C[C@H]1CN([C@@H](C)CO)C(=O)Cc2cc(NC(=O)CCN3CCOCC3)ccc2O[C@@H]1CN(C)C(=O)Nc1ccc(C(F)(F)F)cc1,-0.45,-2,1.1,24
Cc1noc(C)c1NC(=O)N(C)C[C@@H]1Oc2ccc(NC(=O)Nc3cccc4ccccc34)cc2C(=O)N([C@@H](C)CO)C[C@H]1C,-0.092,9,1.7,-1
C[C@@H]1CN([C@@H](C)CO)C(=O)c2cccc(NC(=O)C3CCOCC3)c2O[C@@H]1CN(C)Cc1ccccc1,0.57,-1,1.1,-2
O=S(=O)(c1cccc(NC(=S)NCc2ccco2)c1)N1CCOCC1,x,13,-0.4,x
COc1cccc(NC(=O)c2ccc(OC)c(OC)c2)c1,0.089,-129,0.2,-37

# 11 structures out of the list, arranged by heavy-atom count, highest first.
SMILES,YB-1 expression,MITF inh,PD-1 reversal,Hedgehog inh
C[C@H]1CN([C@@H](C)CO)C(=O)Cc2cc(NC(=O)CCN3CCOCC3)ccc2O[C@@H]1CN(C)C(=O)Nc1ccc(C(F)(F)F)cc1,-0.45,-2,1.1,24
Cc1noc(C)c1NC(=O)N(C)C[C@@H]1Oc2ccc(NC(=O)Nc3cccc4ccccc34)cc2C(=O)N([C@@H](C)CO)C[C@H]1C,-0.092,9,1.7,-1
C[C@H](CO)N1C[C@H](C)[C@H](CN(C)S(=O)(=O)c2ccc(F)cc2)Oc2c(NC(=O)c3nc4ccccc4s3)cccc2C1=O,1.3,58,-6.6,9
Cc1noc(C)c1S(=O)(=O)Nc1cccc2c1O[C@@H](CN(C)S(=O)(=O)c1ccccc1)[C@@H](C)CN([C@@H](C)CO)C2=O,0.018,-7,x,28
CC(C)NC(=O)N(C)C[C@H]1Oc2c(NS(=O)(=O)c3cn(C)cn3)cccc2C(=O)N([C@@H](C)CO)C[C@H]1C,-0.65,0,0.4,-6
COC(=O)c1ccc(C2C(C(=O)Nc3cc(OC)c(Cl)cc3OC)=C(C)Nc3ncnn32)cc1 (stereo not given),x,-2,-2.8,x
O=S(=O)(c1cccc(NC(=S)NCc2ccco2)c1)N1CCOCC1,x,13,-0.4,x
CC(=O)c1cccc(NC(=O)CNS(=O)(=O)c2ccc(Br)cc2)c1,x,-11,-0.8,x
COc1cccc(NC(=O)c2ccc(OC)c(OC)c2)c1,0.089,-129,0.2,-37
O=C(CSc1nc2ccccc2c(=O)[nH]1)NCCO,x,-16,2.3,x
CSc1n[nH]c(=O)n1-c1ccc2c(c1)OCCO2,0.022,-4,0.1,-7
